HPGD block: HPGD (human) dehydrogenase inhibition. AID 894. P15428. purified HPGD, NADH fluorescence kinetic, PGE2 substrate. Potency, µM, for inactives: top-dose activity change, negative = inhibition, most hits filed as inhibitors. hit rate 4.3% among 150,000; active = well fitted inhibition curve with a large enough effect (not every such curve was filed as active); inconclusive = small, poorly fitted or top-dose-only effect, or another doubt; inactive = no such curve, though single readings can be large or run the other way;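 further: top concentration of the series not given in the record; plate controls included wells without enzyme; inactives centre near -10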
Target sequence (P15428 whole entry, looked up): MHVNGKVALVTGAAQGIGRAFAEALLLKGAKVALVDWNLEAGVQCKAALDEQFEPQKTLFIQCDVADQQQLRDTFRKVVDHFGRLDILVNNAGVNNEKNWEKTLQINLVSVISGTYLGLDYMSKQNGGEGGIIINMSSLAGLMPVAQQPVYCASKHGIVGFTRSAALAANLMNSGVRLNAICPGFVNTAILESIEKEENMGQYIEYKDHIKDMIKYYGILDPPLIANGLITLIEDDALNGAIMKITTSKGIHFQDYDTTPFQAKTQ
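20 nM HPGD preincubated 15 min at room temperature with compound in 50 mM Tris-HCl pH 8, 0.01% Tween 20. Started with 1 mM NAD+ and 30 uM prostaglandin E2; NADH fluorescence (360/450 nm) read 5 times over 30-s intervals, last minus first.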
The depositor's hits bear a star; ? = inconclusive. On the % scale 0 is the no-effect control and ±100 the full control effect; potency means the concentration at half of the fitted maximal effect. These rows are one share of the data; rates above refer to the full screens.

| Compound | HPGD block |
| --- | --- |
| CCOc1ccc(S(=O)(=O)n2nc(C)cc2C)c2ccccc12 | -8% |
| C=CCNC(=O)/C(=C\c1ccc([N+](=O)[O-])cc1)NC(C)=O | -15% |
| CCCn1c(C)cc(C(=O)COc2ccc(S(=O)(=O)N(CC)CC)cc2[N+](=O)[O-])c1C | -18% |
| CC(=O)N1CCC2(CC1)CC(=O)c1cc(OCC(=O)NCc3ccco3)ccc1O2 | ? |
| O=C(NC(=S)Nc1ccccn1)c1ccc([N+](=O)[O-])cc1 | 4% |
| C=CCn1c(CNc2ccc(C)cc2)nnc1SCC(=O)N/N=C/c1ccc(O)cc1O | -13% |
| CCN(CC)C(=S)Nc1ccc(Cl)c(Cl)c1 | 1% |
| CCOc1ccc2ncc(S(=O)(=O)c3ccccc3)c(N3CCN(c4ccc(OC)cc4)CC3)c2c1 | -11% |
| NC=O | -11% |
| COc1ccc(C(=O)/C=C/c2ccccc2F)c(OC(=O)c2ccc([N+](=O)[O-])cc2)c1 | -12% |
| CCNC(=O)/C(=C\c1ccc2c(c1)OCO2)NC(=O)c1ccc(Br)cc1 | -2% |
| Cn1c(NCc2c(O)ccc3ccccc23)nc2ccccc21 | ? |
| CCC(=O)N1CCN(c2nc(-c3ccccc3)c3c(c2C#N)CCCC3)CC1 | ? |
| COc1ccc(N(C(=O)c2ccco2)S(=O)(=O)c2ccccc2)cc1 | ? |
| CC(=O)c1cc2c(cc1NC(=O)CCCC(=O)O)OCO2 | -14% |
| O=C(c1cc2ncc(CCCl)cn2n1)N1CCCCCC1 | 1µM* |

Retrieved by structure from above (five):
| Compound | HPGD block |
| --- | --- |
| CCCn1c(C)cc(C(=O)COc2ccc(S(=O)(=O)N(CC)CC)cc2[N+](=O)[O-])c1C | -18% |
| CCNC(=O)/C(=C\c1ccc2c(c1)OCO2)NC(=O)c1ccc(Br)cc1 | -2% |
| O=C(NC(=S)Nc1ccccn1)c1ccc([N+](=O)[O-])cc1 | 4% |
| CCOc1ccc(S(=O)(=O)n2nc(C)cc2C)c2ccccc12 | -8% |
| CCN(CC)C(=S)Nc1ccc(Cl)c(Cl)c1 | 1% |

(further entries)
| Compound | HPGD block |
| --- | --- |
| O=S(=O)(c1ccc(SCCO)nc1)N1CCCC1 | -4% |
| CCC(=O)OCCn1c(Br)nc2c1c(=O)[nH]c(=O)n2C | -19% |
| CCOC(=O)N1CCC(N2Cc3cccc(C(=O)NC(C)c4ccc5c(c4)OCCO5)c3C2=O)CC1 (configuration not stated) | -15% |
| O=C(CCN1CCCCCC1)Nc1cccc(Cl)c1 | -1% |
| Cc1ccc(Nc2nnc(SCC3CCCCO3)s2)cc1 (configuration not stated) | -21% |
| COc1ccc(-c2cc(C(=O)N/N=C/c3ccc(OC)c(COCC(F)(F)C(F)F)c3)c3ccccc3n2)c(OC)c1 | ? |
| COc1cc(SC#N)ccc1N=Cc1c(C)[nH]n(-c2ccc(C)cc2)c1=O | -13% |
| CCOC(=O)CCC(=O)NCc1ccc2c(c1)cc(C)n2C | ? |

In the list so far, these contain an aryl thioether with sulfur outside any ring:
| Compound | HPGD block |
| --- | --- |
| C=CCn1c(CNc2ccc(C)cc2)nnc1SCC(=O)N/N=C/c1ccc(O)cc1O | -13% |
| O=S(=O)(c1ccc(SCCO)nc1)N1CCCC1 | -4% |
| Cc1ccc(Nc2nnc(SCC3CCCCO3)s2)cc1 (configuration not stated) | -21% |

The list continues:
| Compound | HPGD block |
| --- | --- |
| C=CCn1c(SCc2nc3cc(C(=O)OC)ccc3c(=O)[nH]2)nc2sc(CC)cc2c1=O | -20% |
| CCC(=O)c1ccc(OCC(O)CN(C)C2CCCCC2)cc1 (configuration not stated) | -9% |
| O=C1OCC/C1=C\c1ccccc1O | -20% |
| O=C(CCN1CCN(c2ccccc2)CC1)Nc1ccc(OCc2ccccc2)cc1 | -1% |
| Cc1ccc(-n2nc(C(=O)O)nc2-c2ccccc2)cc1 | -6% |
| Cc1nc(NCc2ccccc2)c2nc(-c3ccccc3)n(C(C)CN(C)C)c2n1 (configuration not stated) | -22% |
| Cc1nc2sc3c(c2c(=O)[nH]1)CCCC3 | -9% |
| CC1CCCC(N2CCN(C(=O)c3cccc(F)c3)CC2)C1 (configuration not stated) | 1% |
| COc1ccc(CN2CCN(c3cccc(C)c3C)CC2)cc1OC | -9% |
| COc1cc(C(=O)N/N=c2/sc3ccccc3n2C)cc(OC)c1OC | -14% |
| COCc1cc(C)nc(SCC(=O)Nc2cccc(C)c2C)c1C#N | -14% |
| CC(C)c1ccc(S(=O)(=O)N2CCN(CC(=O)Nc3ccc4c(c3)OCO4)CC2)cc1 | -1% |
| Cc1ccc(C)c(OC(=O)c2cncc(Br)c2)c1 | -5% |
| CC(CN1CCCCC1)OC(=O)c1ccc(Cl)cc1Cl (configuration not stated) | ? |
| CCOC(=O)C(C)On1c(-c2cccc(Cl)c2)nc2ccc([N+](=O)[O-])cc21 (configuration not stated) | -18% |
| Cc1cc(NC(=O)CSc2nnc(Nc3ccccc3)s2)no1 | -15% |
| Cc1ccc(S(N)(=O)=O)cc1NC(=O)C1CC2CCC1C2 (configuration not stated) | -2% |
| CC1Cc2ccccc2N1S(=O)(=O)c1cccs1 (configuration not stated) | -6% |
| O=[N+]([O-])c1cc(Cc2ccccc2)cc(C=Nc2ccc(N3CCOCC3)cc2)c1O | 5µM* |
| Cn1cnnc1SCc1ccc(-c2ccc(Br)cc2)o1 | ? |
| CCCc1cc2c(n1CCc1ccc(Cl)cc1)C(C)C1CN(C(=O)c3ccccc3)C(C)(C(=O)OC)C21 (configuration not stated) | -14% |
| Cn1nc(-c2ccccc2)c(COC(=O)c2cccc(Cl)c2)c1S(=O)(=O)c1ccccc1 | -14% |
| CCS(=O)(=O)N1CCC(c2nc(-c3ccc(C(F)(F)F)cc3)no2)CC1 | -16% |
| C=CCn1c(CSc2nc3ccccc3s2)nnc1SCC(=O)NCc1cccnc1 | -19% |
| CCOC(=O)c1c(/N=C/C2C(=O)CC(C)(C)CC2=O)sc(C)c1C | -12% |
| O=C(N/N=C\c1cc(Br)c(Br)o1)c1cncc(Br)c1 | -11% |
| CC1(c2ccccc2)CC(C)(C)N2C(=O)C3(C(C#N)=C(N)Oc4cc(O)ccc43)c3cccc1c32 (configuration not stated) | -11% |
| Clc1ccc(Sc2ccc(/C=N/n3cnnc3)o2)cc1 | -22% |
| CCOC(=O)CNC(=O)C(Cc1ccccc1)NS(=O)(=O)c1cccs1 (configuration not stated) | -9% |
| COc1ccc(-c2nc3cnc(OC)nc3n(C3CC3)c2=O)cc1 | ? |
| CN1C[C@@H]2C(c3ccccc3)C3(c4cccnc4)CC2(C3)[C@H]1c1ccccc1 (some centres not stated) | -8% |
| Cc1cc(C2(c3cc(C)c(O)cc3C)OS(=O)(=O)c3ccccc32)c(C)cc1O | -13% |

Some of these compounds in order of number of heavy atoms, ascending:
| Compound | HPGD block |
| --- | --- |
| Clc1ccc(Sc2ccc(/C=N/n3cnnc3)o2)cc1 | -22% |
| COc1ccc(-c2nc3cnc(OC)nc3n(C3CC3)c2=O)cc1 | ? |
| CCOC(=O)CNC(=O)C(Cc1ccccc1)NS(=O)(=O)c1cccs1 (configuration not stated) | -9% |
| CC1(c2ccccc2)CC(C)(C)N2C(=O)C3(C(C#N)=C(N)Oc4cc(O)ccc43)c3cccc1c32 (configuration not stated) | -11% |

(more compounds)
| Compound | HPGD block |
| --- | --- |
| Cc1cc(C)nc(N2C(=O)CC(C(C)c3ccccc3)C2=O)n1 (configuration not stated) | 0% |
| CCN1C(=O)/C(=C2\SC(N3CCCCC3)=NC2=O)c2ccccc21 | -20% |
| Cc1ccc2c(c1)nnn2C1CCN(CC(=O)Nc2ccc3c(c2)OCCO3)CC1 | -10% |
| COc1cc(SC)ccc1C(=O)NCC1CCCO1 (configuration not stated) | ? |
| Cc1cccc(C)c1NC(=O)c1ccc(-n2cnnn2)cc1 | -4% |
| CCc1nc2oc3cc(OC)ccc3c(=O)c2c(=O)n1Cc1ccco1 | -14% |
| COC(=O)C(C(=O)OC)[C@@H]1c2ccccc2[C@H]2C(=C[C@@H](C)[C@H]3C(=O)N(c4ccccc4)C(=O)[C@H]32)N1C(=O)OC | -4% |
| O=S(=O)(c1cccc2nsnc12)N1CCOCC1 | -14% |

More results.
canonical_smiles,HPGD block
COc1cccc(NC(=O)c2oc3ccccc3c2NC(=O)C2CC2)c1,-5%
CSc1ccccc1NC(=O)c1ccc(Br)o1,-17%
CCN(Cc1ccccc1)Cc1c(F)cccc1F,-11%
COC(=O)c1ccc(NC(=O)CSc2nnc(COc3ccccc3)n2C)cc1,-7%
C=CCN1C(=O)N/C(=C/c2ccccc2OCC(=O)Nc2ccc(F)cc2)C1=O,?
Cc1ccccc1C(=O)N/N=C/c1ccc([N+](=O)[O-])s1,-20%
Cc1cc2ncn(C(=O)c3cc(-c4ccccc4)nc4ccccc34)c2cc1C,-16%
O=c1cc(CO)oc(C(Nc2ccccn2)c2cccc(F)c2)c1O (configuration not stated),-14%
COC(=O)c1ccc(C(NC(=O)OCc2ccccc2)/C(F)=C/[C@@H](C)C(=O)N[C@@H](CO)Cc2ccccc2)cc1 (some centres not stated),-8%
O=c1c2c3c(sc2n2cnnc2n1CCc1ccccc1)CCCC3,-3%
COC(=O)c1cn(-c2ccccc2)nc1-c1ccccc1,-11%
CC1(C)CC(NC(=O)c2ccc3c(c2)OCO3)CC(C)(C)N1,-28%
COc1ccc(C/C(N)=N/n2cnnc2)cc1,-6%
Cc1ccccc1C(=O)NC1CCN(Cc2nnnn2CCc2ccccc2)CC1,-3%
CCOc1ccc(-c2[nH]nc3c2C(c2ccc(O)cc2)C(C#N)=C(N)O3)cc1 (configuration not stated),-29%
O=C(COc1ccc2c(C(F)(F)F)cc(=O)oc2c1)Nc1ccc(N2CCOCC2)cc1,-14%
COc1ccccc1Oc1coc2cc(O)ccc2c1=O,?
COc1ccc(C2=NN(C(C#N)c3ccc(OC)c(OC)c3)C(c3ccccc3)C2)cc1 (configuration not stated),-29%
O=C1OCCN1C(=O)[C@H]1[C@H](c2ccccc2)C(c2ccc(F)cc2)=NN1c1ccc(Br)cc1,?
CCOC(=O)c1ccc(CN(Cc2ccc(C)cc2)S(=O)(=O)c2cccc([N+](=O)[O-])c2)cc1,-16%
COCCn1c(SCC(=O)N2CCCc3ccccc32)nnc1-c1ccoc1C,3%
CCOc1cccc2cc(C(=O)N3CCc4ccccc4C3)c(=O)oc12,4.5µM*
CN(CC(=O)Nc1ccncc1)S(=O)(=O)c1ccccc1,-2%
CCn1c(COc2cccc3ccccc23)nnc1SCC(=O)OC1CCCCC1,?
Nc1ccc(Sc2cc(Cl)nc(N)n2)cc1,-21%
COc1ccc(OC)c(C2=NOC(C(=O)Nc3cc(C)nn3-c3ccccc3)C2)c1 (configuration not stated),0%
O=C(COC(=O)c1cccc([N+](=O)[O-])c1)NCc1ccc2c(c1)OCO2,-12%
O=C1Nc2ccccc2N=C(c2ccccc2)C1N1CCOCC1 (configuration not stated),-11%
O=C(Nc1ccc2c(c1)OCO2)C(c1ccccc1)N1CCCCC1 (configuration not stated),-4%
Cc1cccc(C)c1NC(=O)C(c1ccccc1)N1CCOCC1 (configuration not stated),-6%
Cc1nnc2ccc(N3CCCC3)nn12,-6%
CCCn1nc(-c2ccccc2)c2nc3ccccc3nc21,-9%
COc1ccc(OC)c(-c2cc(C(=O)Nc3c(C)nn(Cc4ccccc4)c3C)no2)c1,?
CCOC(=O)/C(C(N)=NC)=C(\O)c1ccccc1,-1%
Cc1oc(C(C)(C)C)cc1C(=O)Nc1cccc(/C=C\C(=O)O)c1,2%
CCOc1cccc(C(=O)Nc2nccs2)c1,?
CCCOc1ccc(C2c3c(oc4ccccc4c3=O)C(=O)N2CCCN2CCOCC2)cc1 (configuration not stated),-26%
CC(=O)N1CCc2cc(S(=O)(=O)NCCC(=O)N3CCc4ccccc4C3)ccc21,-1%
O=C(Nc1ccc2c(c1)OCO2)C1CCN(C(=O)c2cccs2)CC1,-15%
CCC(=Nc1ccc(Cc2ccncc2)cc1)c1c(O)n(C)c(=O)n(C)c1=O,-11%
COc1ccccc1OCc1ccc(C(=O)n2nc(C)c(Cl)c2C)o1,-11%
COc1ccc(C(=O)Nc2ccc3c(c2)nc2n3CCSC2)cc1,?
O=C(O)CC(C(=O)O)N1C(=O)/C(=C/c2ccc(-c3nc4ccccc4s3)o2)SC1=S (configuration not stated),25µM*
COc1cnn(-c2cc(Oc3ccc(C)cc3)ncn2)c(=O)c1Cl,-6%
CC1=CC(C)(C)N(C(=O)CSc2ncn[nH]2)c2ccccc21,-7%
CCSC1=N/C(=C\c2cccnc2)C(=O)N1c1ccccc1,-29%
CC(=O)N(Cc1c(C#N)c2ccccc2n1C)c1ccccc1,-2%
Cc1ccc(NC(=O)NNS(=O)(=O)c2ccc(Br)cc2)cc1,-14%
COCCCN=C1NN=C(c2cc(C)n(Cc3ccco3)c2C)CS1,-10%
O=C(O)c1cccnc1SC1CC(=O)N(Cc2ccccc2)C1=O (configuration not stated),-3%
Cc1ccc(C(=O)CSc2nnc(-c3ccccc3N)n2C)cc1,-22%
COc1ccc(/C=N/N=C2\CC3CCC2(C)C3(C)C)cc1O (configuration not stated),-17%
Cc1cccc(-c2nnc(SCC(=O)Nc3nc4c(s3)CCCC4)n2C)c1,2%
COC(=O)C1=C(C)N(c2ccccc2)/C(=C/c2cccs2)C1=O,-16%
CCOC(=O)C(=O)NNc1ccccc1C,-7%
Cc1ccc2cc(/C=N/NC(=O)CN3CCOCC3)c(Cl)nc2c1,-1%
CC(C)CCN1C(=O)c2ccccc2C1C(=O)NCc1cccnc1 (configuration not stated),-2%
COC1=C(N)C(=O)c2nc(-c3nc(C(=O)O)c(C)c(-c4ccc(OC)c(OC)c4O)c3N)ccc2C1=O,-14%
CCCOC(=O)c1cc(=O)[nH]c2ccccc12,-23%
CC(c1ccccc1)N1CC(C(=O)N2CCN(c3ccccc3)CC2)CC1=O (configuration not stated),-1%
O=[N+]([O-])c1cc(Cl)cc(C2=NCCN2)c1,-11%

Source: PubChem BioAssay
